# Bioassay records from PubChem BioAssay.
# PKD1 inh = PKD1 (human) kinase inhibition | PKD1 kinase fluorescence polarization assay | hit rate 0.056% among 200,000 | inhibition, %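 (about 10 µM by stock and volumes)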;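 active means inhibition of 50% or more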;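 further: controls were vehicle for no effect and a reference inhibitor for full effect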
# INS promoter inh = TRM-6 insulin promoter activity inhibition; TRM-6 cells (human fetal islet line), insulin promoter-eGFP reporter, imaging; reporter expression induced with tamoxifen; hit rate 0.9% among 130,000; inhibition, % at 2 µM; AID 1273;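 active means inhibition above the mean plus 3 SD, with well images judged a real hit on visual review, cut at about 60% in these data, passing the limit was not always enough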
# RGS16-Gao = modulates binding between human RGS16 and Galphao | bead-based flow cytometry RGS16-Galphao binding, fluorescence; actives lie on both sides | binding response (% of control), % at 10 µM | hit rate 0.38% among 220,000 | AID 1441;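 active means below 25% or above 175%, edge rows of some plates excepted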;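 further: Galphao activated by GDP with aluminum fluoride before binding; 100% = wells without compound and 0% = beads without RGS; some results beyond the cut were filed as inactive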
# Target sequence (O15492 whole entry, looked up): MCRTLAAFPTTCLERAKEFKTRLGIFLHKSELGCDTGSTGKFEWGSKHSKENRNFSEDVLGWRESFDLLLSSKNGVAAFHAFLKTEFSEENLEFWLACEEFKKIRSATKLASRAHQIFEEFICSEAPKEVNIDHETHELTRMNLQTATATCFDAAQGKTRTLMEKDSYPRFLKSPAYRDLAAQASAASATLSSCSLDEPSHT
# Target sequence (P09471 whole entry, looked up): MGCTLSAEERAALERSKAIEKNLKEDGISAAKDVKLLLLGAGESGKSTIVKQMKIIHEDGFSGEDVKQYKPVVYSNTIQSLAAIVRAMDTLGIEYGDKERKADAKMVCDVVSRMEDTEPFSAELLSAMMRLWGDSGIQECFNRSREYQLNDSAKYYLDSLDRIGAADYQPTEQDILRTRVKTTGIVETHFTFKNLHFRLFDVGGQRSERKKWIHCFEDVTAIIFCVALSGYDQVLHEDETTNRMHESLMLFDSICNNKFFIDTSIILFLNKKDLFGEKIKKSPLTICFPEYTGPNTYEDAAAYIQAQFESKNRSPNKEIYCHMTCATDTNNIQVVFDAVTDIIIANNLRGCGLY
# GALR2 agonist = agonists of human galanin receptor 2 (GALR2); activation, %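 (tested at 5 µM)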; AID 803; GALR2-expressing cells, agonist activation read-out; hit rate 0.48% among 140,000; O43603;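 active means above mean plus 3 SD of all compounds, about 5% in these data, not always enough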;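 further: 0% = vehicle buffer wells and 100% = reference agonist at full effect; tested in CHO reporter cells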
# Target sequence (O43603 whole entry, looked up): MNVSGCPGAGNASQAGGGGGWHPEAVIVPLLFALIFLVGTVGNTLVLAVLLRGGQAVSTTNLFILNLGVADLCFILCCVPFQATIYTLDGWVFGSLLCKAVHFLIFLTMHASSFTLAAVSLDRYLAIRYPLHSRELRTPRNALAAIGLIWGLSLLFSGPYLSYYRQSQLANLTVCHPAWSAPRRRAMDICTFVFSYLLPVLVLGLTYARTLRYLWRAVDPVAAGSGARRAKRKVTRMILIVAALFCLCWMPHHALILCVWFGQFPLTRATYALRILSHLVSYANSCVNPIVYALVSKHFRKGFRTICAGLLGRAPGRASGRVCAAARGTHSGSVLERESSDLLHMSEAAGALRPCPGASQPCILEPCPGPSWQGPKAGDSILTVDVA
# HSV augment = increases HSV replication in cells; HSV replication augmentation in cells, fold increase; AID 1956; maximum fold increase; hit rate 0.005% among 220,000;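 active means peak rise of 1.5-fold or more in the series; tested in PC3 cells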;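 further: first round at 10 µM; read as green reporter fluorescence; hits show the peak of a series up to 25 µM; 1 = signal of infected wells without compound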
# INS promoter inh cell count = further read-out of INS promoter inh, marked with its call; normalized cell count, %; measured here: cell count, toxicity; reference of the scale not given here;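 cells exposed to compound for 48 h; stained nuclei by imaging scaled within each plate; lower means fewer cells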
# HSV augment primary fold = second read-out of HSV augment, no call of its own (marks repeat the call); fold increase; compound at 10 µM; measured here: primary screen fold increase 10 uM; tested in PC3 cells;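 GFP signal in the first replicate; 1 = infected wells without compound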
# * marks the source's active call; other numbers are inactive results; i = inactive; · = no result given.
# Start of the data: the first 7 records, to show the layout:
# Every second line gives: HSV augment	GALR2 agonist	RGS16-Gao	INS promoter inh cell count	INS promoter inh	HSV augment primary fold	PKD1 inh
- Cc1cc(C)cc(NC(=O)C(=O)NCCCN2CCOCC2)c1
  i	·	103	·	·	1.2	7
- Cc1cccc(NC(=S)N(CCN(C)C)C(C)c2ccccn2)c1 (stereo unspecified)
  i	-1.1	162	79	6	1.1	1
- CCc1ccccc1NS(=O)(=O)c1ccc2c(c1)NC(=O)CC(=O)N2
  i	-0.9	72	51	8	1.1	4
- CSCc1nnc(NC(=O)c2ccc(S(=O)(=O)N(CC(C)C)CC(C)C)cc2)o1
  ·	-2.4	102	133	-100	·	-9
- CC1=C(C(=O)OCC2CCCO2)C(c2ccc(C)o2)C2=C(CC(c3ccc(N(C)C)cc3)CC2=O)N1 (stereo unspecified)
  i	-1.8	95	127	-88	1	-4
- CCN(CC)c1ccc(/C=N/n2c(=S)[nH]nc(C)c2=O)cc1
  i	-3.0	112	·	·	1	23
- COc1ccc(CCNC(=O)Cn2cc(C(F)(F)F)cc(Cl)c2=O)cc1
  ·	-1.2	44	101	38	·	-11

# The listing (from the top)
# Every second line gives: HSV augment	GALR2 agonist	RGS16-Gao	INS promoter inh cell count	INS promoter inh	HSV augment primary fold	PKD1 inh
- Cc1cc(C)cc(NC(=O)C(=O)NCCCN2CCOCC2)c1
  i	·	103	·	·	1.2	7
- Cc1cccc(NC(=S)N(CCN(C)C)C(C)c2ccccn2)c1 (stereo unspecified)
  i	-1.1	162	79	6	1.1	1
- CCc1ccccc1NS(=O)(=O)c1ccc2c(c1)NC(=O)CC(=O)N2
  i	-0.9	72	51	8	1.1	4
- CSCc1nnc(NC(=O)c2ccc(S(=O)(=O)N(CC(C)C)CC(C)C)cc2)o1
  ·	-2.4	102	133	-100	·	-9
- CC1=C(C(=O)OCC2CCCO2)C(c2ccc(C)o2)C2=C(CC(c3ccc(N(C)C)cc3)CC2=O)N1 (stereo unspecified)
  i	-1.8	95	127	-88	1	-4
- CCN(CC)c1ccc(/C=N/n2c(=S)[nH]nc(C)c2=O)cc1
  i	-3.0	112	·	·	1	23
- COc1ccc(CCNC(=O)Cn2cc(C(F)(F)F)cc(Cl)c2=O)cc1
  ·	-1.2	44	101	38	·	-11
- CCCn1c(C)cc(C(=O)COC(=O)c2cc(S(=O)(=O)NCC(C)C)c(Cl)cc2Cl)c1C
  i	-0.8	100	83	-6	0.95	-3
- CC(=O)N1CCN(c2ccc(S(C)(=O)=O)cc2[N+](=O)[O-])CC1
  i	·	103	185	25	1	-4
- CC(=O)N1N=C(c2ccco2)CC1c1ccc(C)cc1 (stereo unspecified)
  i	-0.5	103	84	-10	0.94	1
- Cc1cc2c(=O)n(Cc3ccco3)c(SCC(=O)c3ccc(Cl)s3)nc2s1
  i	-0.2	98	86	-95	0.99	-8
- COc1cc(Br)cc2cc(C(=O)N3CCN(C(=O)c4ccco4)CC3)c(=O)oc12
  i	-1.4	101	·	·	0.87	4
- Cc1cc(C)c(C#N)c(Nc2ccc3c(c2)OCCO3)n1
  i	-1.0	102	·	·	0.95	1
- O=C(C1CC1)N1CCc2cc(Br)cc(S(=O)(=O)N3CCCCCC3)c21
  i	0.9	100	116	-52	1	-1
- COc1ccc(-n2c(Cn3c(=O)sc4ccccc43)nnc2SCC(=O)N2CCCC2)cc1
  i	-0.9	102	·	·	0.93	1
- COc1ccc(-n2c(SCc3ccc([N+](=O)[O-])cc3)nnc2-c2ccc(C)cc2)cc1
  i	1.2	45	·	·	0.93	-2
- Fc1ccccc1COc1ccc(/C=N/NC(=S)NCc2ccccc2)cc1
  i	-0.3	81	175	-7	0.91	-5
- COc1cc2c(C)nc3onc(-c4ccccc4)c3c2cc1OC
  i	-1.5	102	111	19	0.82	-12
- CC1CCc2nn(CC(=O)NCc3ccc4c(c3)OCO4)cc2C1 (stereo unspecified)
  i	-1.0	100	78	0	1.2	-3
- CC1CCc2cc(F)ccc2N1C(=O)CSc1nnc2c3ccccc3n(C)c2n1 (stereo unspecified)
  i	-2.1	106	·	·	1.2	-22

# Whole records from above:
# `COc1cc(Br)cc2cc(C(=O)N3CCN(C(=O)c4ccco4)CC3)c(=O)oc12` is listed with HSV augment = i; GALR2 agonist = -1.4; RGS16-Gao = 101; INS promoter inh cell count = ·; INS promoter inh = ·; HSV augment primary fold = 0.87; PKD1 inh = 4
# `COc1cc2c(C)nc3onc(-c4ccccc4)c3c2cc1OC` is listed with HSV augment = i; GALR2 agonist = -1.5; RGS16-Gao = 102; INS promoter inh cell count = 111; INS promoter inh = 19; HSV augment primary fold = 0.82; PKD1 inh = -12

# Additional records
# Every second line gives: HSV augment	GALR2 agonist	RGS16-Gao	INS promoter inh cell count	INS promoter inh	HSV augment primary fold	PKD1 inh
- O=C(/C=C/c1ccco1)NCc1ccc2c(c1)OCO2
  i	·	86	107	29	1.2	-3
- COc1ccc(-c2nc(SC(CC(=O)NCc3ccccc3)c3ccc(OC)c(OC)c3)n[nH]2)cc1 (stereo unspecified)
  i	-0.3	101	·	·	0.94	0
- O=C(O)Cc1c[nH]c2cccc(O)c12
  i	·	102	·	·	0.65	7
- COc1ccc(-n2c(C)cc(C(=O)CSc3nnc(-c4ccoc4C)n3C)c2C)cc1
  i	-2.9	119	·	·	0.98	-1
- N#Cc1c(SCC(N)=O)nc(-c2ccccc2)c2c1CCCC2
  i	0.4	119	·	·	0.9	0
- CCOc1cc(N2CCOCC2)c(OCC)cc1NC(=O)CSc1n[nH]c(N)n1
  i	·	57	115	50	1.1	2
- CCOc1ccc(N(CC(=O)OC)S(=O)(=O)c2ccc(OC)c(OC)c2)cc1
  i	0.3	113	88	-26	0.99	-3
- COc1cc(OC)cc(C(=O)Nc2nnc(Cc3ccc(OC)c(OC)c3)s2)c1
  i	·	100	100	-31	0.89	2
- O=C(CNC(=O)c1cccc(Br)c1)N/N=C/c1ccc[nH]1
  i	·	104	48	22	0.67	13
- COC(=O)[C@@]1(Cc2ccc(F)cc2)[C@H]2c3cc(C(=O)N4CCCC4)n(Cc4ccc(C(F)(F)F)nc4)c3C[C@H]2CN1C(=O)c1ccccc1
  i	-1.5	122	62	5	0.7	6
- O=C(NCCn1ccc2ccccc21)c1ccc(S(=O)(=O)N2CCOCC2)cc1
  i	·	103	·	·	1	-15
- O=C(c1cc(-c2ccccc2)nc2ccccc12)N1CCN(c2ccccn2)CC1
  i	-1.5	517	94	-94	0.9	93*
- O=C1NC(=Nc2ccc(O)cc2)S/C1=C/c1ccco1
  i	·	99	111	33	0.96	-1
- O=C(Nc1ccc2c(c1)OCO2)c1cccc(F)c1
  i	-0.6	108	114	40	0.97	4
- Cc1cccc(N2CCN(Cc3ccoc3)CC2)c1C
  i	-2.4	97	121	0	1.1	-3
- C[C@H](NC(=O)c1ccco1)C(=O)Nc1cccc([N+](=O)[O-])c1
  i	·	103	149	58	0.96	-1
- Cc1cc(C)nc(NNC2=CC(=[N+]3CCCC3)CCC2)n1
  i	·	102	140	14	0.91	-4
- OCCC1CN(CC(c2ccccc2)c2ccccc2)CCN1C1CCCC1 (stereo unspecified)
  i	·	106	81	0	0.91	6
- COC(=O)[C@@H](Cc1c[nH]c2ccccc12)NC(=O)c1cc(=O)[nH]c2ccccc12
  i	·	98	·	·	1.3	·
- Cc1ccc(Oc2ccccc2/C=N/O)cc1
  i	-1.0	104	87	-7	0.89	-2

# Every second line gives: HSV augment	GALR2 agonist	RGS16-Gao	INS promoter inh cell count	INS promoter inh	HSV augment primary fold	PKD1 inh
- O=C(NC1CCCC1)C(c1cccnc1)N(C(=O)c1csnn1)C1CCCC1 (stereo unspecified)
  i	-0.7	50	118	-129	0.99	3
- CC(C)(C)C(=O)N1CCC[C@@]1(CO)C(=O)O
  i	-1.3	112	93	9	0.87	-9
- COc1ccc(C(=O)NNC2=C(C(=O)C(F)(F)F)CCC2)cc1
  i	·	95	·	·	1	·
- O=C(Cc1cccc2ccccc12)N/N=C/c1ccc(OC(=O)/C=C/c2ccco2)cc1
  i	-2.3	100	116	-23	0.99	-9
- CCOC(=O)c1c(NC(=O)COC(=O)c2ccncc2)sc(C)c1C
  i	·	104	105	20	0.87	-2
- Cc1ccc(CC(=O)NCc2ccc(Cl)cc2)cc1
  i	·	87	·	·	0.76	-4
- CCOC(=O)C(=O)c1c(-c2ccc(C)cc2)nc2ccccn12
  i	·	98	66	11	1	-2
- CC(C)(C)NC(=O)Nc1ccc(Br)cc1
  i	·	104	·	·	0.93	6
- CCSc1ccc2cc(OC)ccc2[n+]1CC
  i	·	95	·	·	0.8	-6
- Cc1ccc(OCC(=O)N/N=C/c2cn(Cc3ccccc3)c3ccccc23)cc1
  i	-0.1	146	49	-42	0.96	4
- COc1ccc(S(=O)(=O)Nc2ccccc2SC)cc1C
  i	-1.1	101	136	0	0.78	-7
- CC1CCCC(NC(=S)NC(=O)c2cncc(Br)c2)C1C (stereo unspecified)
  i	1.8	103	140	-11	0.94	-12
- Cc1ccc(S(=O)(=O)n2nc(C)cc2C)cc1
  i	-1.0	11	100	25	0.96	-6
- CCN1CCN(CCNC(=O)C2CCCN(Cc3nc(-c4cccc(Cl)c4)oc3C)C2)CC1 (stereo unspecified)
  i	-2.7	103	·	·	0.93	-1
- O=C(C1CCC1)N1CCc2cc(S(=O)(=O)NCc3ccccn3)ccc21
  i	-0.2	102	57	4	0.84	-7
- N#Cc1c2n(c3c(=S)nc[nH]c13)CCCCC2
  i	-0.5	93	52	11	0.94	2
- O=C(CCC1CCCCC1)NCCN1C2=NC[C@@H](Cc3ccccc3)N2C[C@H]1Cc1ccc(O)cc1
  i	·	99	·	·	0.84	-1
- COc1ccc(S(=O)(=O)Nc2ccc(C(F)(F)F)cc2)cc1OC
  i	-0.1	83	134	-131	1	-7
- CCOC(=O)C(NC(C)=O)(N1CCc2ccccc2C1)C(F)(F)F (stereo unspecified)
  i	-0.1	100	54	3	0.99	2
- COC(=O)C1=C(C)NC(C)=C(C(=O)OC)C1c1ccccc1OCc1c(C)no[n+]1[O-]
  i	-0.6	95	·	·	0.84	1

# Every second line gives: HSV augment	GALR2 agonist	RGS16-Gao	INS promoter inh cell count	INS promoter inh	HSV augment primary fold	PKD1 inh
- Cc1ccnc2nc(C(=O)Nc3nccs3)nn12
  ·	-1.4	106	80	27	·	-6
- CC1CCCCC12NC(=O)N(CC(=O)Nc1ccccc1-c1ccccc1)C2=O (stereo unspecified)
  i	·	101	105	-12	1.2	4
- Cc1ccc(N2C(=O)CSCC2=O)cc1
  i	-1.4	102	·	·	0.98	11
- CCOC(=O)c1ccccc1NC(=O)CSc1nnnn1C1CCCCC1
  i	1.3	100	63	36	0.92	-9
- O=C(Nc1ccccc1)N(Cc1ccccc1)C1=NCCS1
  i	3.9	101	78	-24	0.9	1
- Cc1ccc(S(=O)(=O)C2(C(=O)N3CCN(C4CCCCC4)CC3)CC2)cc1
  i	0.2	103	89	14	0.94	-8
- O=[N+]([O-])c1ccc(/C=N/NC2=NS(=O)(=O)c3ccccc32)cc1
  i	·	111	88	5	0.97	-3
- O=C(CSc1nnc(-c2ccccc2)n1C1CCCCC1)Nc1ccc(S(=O)(=O)Nc2ccccn2)cc1
  i	-0.2	103	186	-32	1	-2
- COc1ccc(C2SCCN2S(=O)(=O)c2ccccc2)cc1OC (stereo unspecified)
  i	-1.7	100	56	-50	0.92	-2
- Cc1ccc([N+](=O)[O-])cc1S(=O)(=O)Nc1ccccn1
  i	·	101	·	·	0.91	0
- CCn1c(C)c(C(C)=O)c(N2CCN(C(=O)c3ccco3)CC2)nc1=S
  i	-1.5	111	103	10	0.71	-4
- CCOC(=O)N1CCN(C(=O)CCC2CCCC2)CC1
  i	·	100	·	·	0.87	-7
- O=C(COC(=O)c1cnccn1)c1ccc(Cl)c([N+](=O)[O-])c1
  i	·	102	·	·	1.1	·
- CC(C)n1nc(C(=O)Nc2nnc(SCc3c(Cl)cccc3Cl)s2)c2ccccc2c1=O
  i	-1.7	104	99	-42	0.82	-2
- Oc1ccc(NCc2ccccc2OCc2ccccc2)cc1
  i	-0.8	94	140	12	0.85	2
- CCC(=O)N1C(C(=O)O)CSC1c1ccc(OC)cc1 (stereo unspecified)
  i	-0.8	115	·	·	1.4	-8
- COc1cc(C(=O)N2CC(C)OC(C)C2)c([N+](=O)[O-])cc1OC (stereo unspecified)
  i	-1.9	97	93	-11	1.2	-12
- CCN(c1ccccc1)S(=O)(=O)c1ccc(OC)c(NC(=O)CNCCc2ccccc2)c1
  i	·	101	94	39	0.86	2
- NC(=O)C1CCCNC1 (stereo unspecified)
  i	·	101	·	·	1.1	·
- CCOC(=O)COc1cc(N)c(Cl)cc1Cl
  i	·	98	78	53	0.98	-2
